VACV Venus inh: vaccinia inhibition (Venus reporter); Vaccinia virus Venus reporter expression, fluorescence; Potency, µM (series often up to 36.5 µM), for inactives: at the top dose activity change, negative = inhibition, hits mostly inhibitors; actives 0.46% (n = 330,000); AID 720580; active means well fitted inhibition curve with a large enough effect; inconclusive means small, poorly fitted or top-dose-only effect; inactive means no such curve, though single readings can be large or run the other way; tested in A549 cells; also: nearly all actives have a fitted effect of over 30% in size; inactives centre near -10
VACV mCherry inh: vaccinia inhibition (mCherry reporter) | Potency, µM (top dose mostly 36.5 µM), for inactives: top-dose activity change, negative = inhibition, hits mostly inhibitors | Vaccinia virus mCherry reporter infection, fluorescence; about a quarter of the inactives have no number | actives 0.63% (n = 310,000); active = well fitted inhibition curve with a large enough effect; inconclusive = small, poorly fitted or top-dose-only effect; inactive = no such curve, though single readings can be large or run the other way; tested in A549 cells; also: nearly all actives have a fitted effect of over 35% in size; inactives centre near -10
* marks the source's active call; other numbers are inactive results; i = inactive; ? = inconclusive; . = no result given; & = joins results of further samples; [ ] = another dose, or the depositor's remark. % is scaled to controls: 0 for no effect and ±100 for the full control effect; potency is read from the fitted curve at half-maximal effect.

A first look:
SMILES	VACV Venus inh	VACV mCherry inh
CCOC(=O)C1(Cc2ccccc2C(F)(F)F)CCN(CC2CC2)CC1	-12%	-1%
CN1CCN(c2ncnc3c2ncn3[C@H]2CN(Cc3ccc(F)cc3)C[C@@H](CO)O2)CC1	7%	-20%
CCCCC(=O)OCc1cc(=O)n2nc(C3CC3)sc2n1	-8%	-8%

The list itself, from the first entry:
SMILES	VACV Venus inh	VACV mCherry inh
CCOC(=O)C1(Cc2ccccc2C(F)(F)F)CCN(CC2CC2)CC1	-12%	-1%
CN1CCN(c2ncnc3c2ncn3[C@H]2CN(Cc3ccc(F)cc3)C[C@@H](CO)O2)CC1	7%	-20%
CCCCC(=O)OCc1cc(=O)n2nc(C3CC3)sc2n1	-8%	-8%
CC12COC3(C(=O)Nc4cccnc4)CC1CCC32C (configuration not stated)	1%	-13%
Cc1c(NC(N)=O)c(=O)n(-c2ccccc2)n1C	-15%	-2%
COc1ccc(C(=O)NC(C(=O)NCCc2ccc3c(c2)OCCO3)C(C)C)cc1 (configuration not stated)	-7%	0%
CCc1ccccc1NC(=O)C1CCN(S(=O)(=O)c2cn(C)cn2)CC1	-6%	-10%
Cc1ccc(Cl)cc1N1CCN(C(=O)c2cn(C)c3ccc(S(=O)(=O)N(C)C4CCCCC4)cc3c2=O)CC1	-5%	-11%
O=C1COc2ccc(OCc3ccc(F)cc3)cc21	-17%	i
CCC1=Nc2cc(C(=O)NC(C)c3ccccc3)ccc2Sc2ccc(Cl)cc21 (configuration not stated)	-6%	-23%
CC1CN(Cc2ccccc2)C(C)CC1O (configuration not stated)	-10%	i
CSc1ccc(CCNC(=O)CCc2nnc3ccc(N4CCC5(CC4)OCCO5)nn23)cc1	-13%	-13%
O=C(COc1cccc2ccccc12)NCc1cccnc1	-4%	0%
CC(C)(CNC(=O)c1cccs1)CNC(=O)c1cccs1	2%	-7%
O=C(O)C1CCN(S(=O)(=O)c2ccc(N3CCOCC3)c([N+](=O)[O-])c2)CC1	-22%	i
Cn1c(=O)c2c(nc(SCCN3CCOCC3)n2Cc2ccccc2)n(C)c1=O	-10%	-19%
Cc1ccc2cccc(OCc3ccc(Br)cc3)c2n1	-12%	-11%
Cc1cc(C)nc(-n2ncc3c2CC(c2ccc(C(C)C)cc2)CC3=O)n1 (configuration not stated)	-23%	-25%
C[n+]1cccc2ccc3c(c21)OC(N)=C(C#N)C3c1ccccc1 (configuration not stated)	-16%	i
CCNC(=O)CCC(=O)Nc1cc(Cl)ccc1C	-6%	-11%[1.46 µM]
CC(C)NC(=O)N(C)C[C@H]1OCCCC[C@@H](C)Oc2ccc(N(C)C)cc2C(=O)N([C@H](C)CO)C[C@@H]1C	-13%	-8%
COC(C/C=C/[C@H](O)[C@@H](C)OCc1ccccc1)OC	-5%	i
CC[C@@H](C)CN1C(=O)N[C@@H](CCc2ccccc2)C(C(C)=O)=C1C	-7%	i
O=C(c1ccc(=O)oc1)N1CCOCC1	-12%	2%
O=S(=O)(c1ccc(Br)c2ccccc12)N1CCOCC1	-20%	-8%

6 of the compounds above, with values under each structure.
The line under a structure holds: VACV Venus inh	VACV mCherry inh
Cc1ccc(Cl)cc1N1CCN(C(=O)c2cn(C)c3ccc(S(=O)(=O)N(C)C4CCCCC4)cc3c2=O)CC1
    -5%	-11%
CCNC(=O)CCC(=O)Nc1cc(Cl)ccc1C
    -6%	-11%[1.46 µM]
O=C(COc1cccc2ccccc12)NCc1cccnc1
    -4%	0%
Cc1ccc2cccc(OCc3ccc(Br)cc3)c2n1
    -12%	-11%
O=C(O)C1CCN(S(=O)(=O)c2ccc(N3CCOCC3)c([N+](=O)[O-])c2)CC1
    -22%	i
O=C1COc2ccc(OCc3ccc(F)cc3)cc21
    -17%	i

(cont.)
SMILES	VACV Venus inh	VACV mCherry inh
Cc1ccc(C(C)C)c(OCC(=O)Nc2cccc(NC(=O)c3ccco3)c2)c1	-5%	-20%
CC1CN(S(=O)(=O)c2ccc(C(=O)Nc3nnc(-c4ccc5c(c4)CCCC5)o3)cc2)CC(C)O1 (configuration not stated)	?	8.9µM*
O=C1CCC(C(=O)OCC(=O)Nc2ccccc2Br)=NN1	?	-28%
CCCCc1noc(-c2c(-c3ccccc3Cl)noc2C)n1	4%	6%
COc1ccc2[nH]cc(CCNC(=O)Nc3cccc(F)c3)c2c1	-25%	-20%
Cc1nc2nc(NC(=O)CC(C)C)[nH]n2c(=O)c1Cc1ccccc1	-13%	-11%
Cc1cccc(OCC(=O)N(Cc2ccc(F)cc2)C2CCS(=O)(=O)C2)c1C (configuration not stated)	1%[7.34 µM]	-7%[7.34 µM]
O=C(NC1CCCCC1)c1cc(Nc2cccc(C(F)(F)F)c2)nc2ccccc12	5%	-6%
COc1cc2oc(=O)cc(CN(Cc3ccccc3)Cc3ccccc3)c2cc1Cl	-3%	1%
Cc1cccc(N(C(=O)Cn2nnc(-c3ccc(C)o3)n2)C(C(=O)NC2CCCC2)c2ccncc2)c1 (configuration not stated)	-9%	i
COc1ccc(N/N=C(/C)c2cnnc(-c3ccccc3)n2)cc1	-8%	-22%
C=C(C)CSc1nc2sc3c(c2c(=O)n1-c1ccc(C)cc1)CCN(C)C3	-18%	-15%
Cc1nc2ccccc2c2nc(NC(=O)C(F)(F)F)nn12	-4%	3%
CCc1cc2c(=O)c(-c3nc4ccccc4n3C)coc2c(CN2CCOCC2)c1O	-2%	i
CC(C)c1ccc(/C=C/C(=O)N2CCOCC2)cc1	5%	-14%
Cc1ccc(CNC(=O)C23CN(Cc4ccccc4)CC2C(c2cccc([N+](=O)[O-])c2)=NO3)cc1 (configuration not stated)	-3%	-7%
Cc1cccnc1CCNC(=O)CCc1nnc(CCc2ccccc2)o1	-5%	i
CCCCOc1cccc(C(=O)NC(=S)Nc2cccc(NC(=O)c3ccccc3Cl)c2)c1	-7%	-17%
CSc1nsc(SCc2ccc(F)cc2)n1	-18%	.
O=C1CCCCc2sc(Br)c([N+](=O)[O-])c2N1	-12%[7.34 µM]	-19%[7.34 µM]
C=CCNC(=O)c1onc(CSc2ccc(C(C)C)cc2)c1C(=O)O	-7%	i
CN(C)S(=O)(=O)c1cccc(NC(=S)Nc2ccc(Cl)cc2Cl)c1	-12%	-12%
COc1ccc(S(=O)(=O)N(C)C[C@H]2Oc3ccc(NC(=O)Nc4ccccc4)cc3C(=O)N([C@H](C)CO)C[C@@H]2C)cc1	?	-10%
CC(=O)c1cccc(NC(=O)c2cc(=O)[nH]c3ccc(S(=O)(=O)N4CCOCC4)cc23)c1	1%	-14%
CCC(C)(C)n1nnnc1CN1CCc2ccccc21	-11%	-22%
SMILES	VACV Venus inh	VACV mCherry inh
O=C(COC(=O)COc1ccc2c(c1)CCC2)Nc1ccccc1C(F)(F)F	4%	-7%
COc1ccc(Cl)cc1NC(=O)Cn1cc(C(=O)c2ccc(C)cc2)c(=O)c2ccc(C)nc21	-4%	-11%
COc1ccccc1/C=C/C(=O)NC(=S)Nc1ccc(S(=O)(=O)N(C)c2ccccc2)cc1	6%	.
Cc1ccccc1CNCCCSc1nnnn1-c1ccccc1	-6%	-11%
CCOC(=O)C(Cc1c[nH]c2ccc([N+](=O)[O-])cc12)(NC(C)=O)C(=O)OCC	-20%	i
COc1ccc(NS(=O)(=O)c2ccc(-c3cnc(C4CC4)o3)cc2)cc1Cl	-22%	-26%
NC(=O)C1CCN(C(=O)N2c3ccccc3Sc3ccccc32)CC1	-18%	-19%
CC(C)Oc1ccc(CNC(=O)C2CCN(c3nc4ccccc4n(C)c3=O)CC2)cc1	0%	-4%
Cc1cc(OCC(=O)N2CCN(c3ccccn3)CC2)cc(C)c1Br	-21%	-11%
CCCC(C)c1nnc(NC(=O)C2CC(=O)N(c3ccc(OCC)cc3)C2)s1 (configuration not stated)	-9%	-14%
O=C(CCC1CCCCC1)NC1CCCCC1	-16%	-3%
CCc1cccc(CC)c1NC(=O)c1c(C)oc2ccc(O)c(CN3CCCC3)c12	1%	-7%
COc1ccc(NC(=O)c2nc[nH]c2C(=O)N2CCN(C(=O)OC(C)(C)C)CC2)cc1	-6%	-26%
CCOc1ccc(-n2nc3ccc(NC(=O)c4ccc(C)cc4C)cc3n2)cc1	-8%	-10%
O=C(NC1CCCC1)C(c1ccccc1)N(C(=O)c1ccno1)c1cccnc1 (configuration not stated)	-7%	-12%
COC(=O)C1=C(C)N(Cc2ccccc2)C(=NCC(C)C)N[C@H]1c1cccc(F)c1	?	?
CCCCSCCCNC(=S)Nc1ccccc1C	-11%	-17%
CC(CCc1ccccc1)NCC(O)c1ccc(O)c(C(N)=O)c1 (configuration not stated)	-27%&-13%	-4%&-20%
COCCCn1c(N)c(C(=O)Nc2ccccc2)c2nc3ccccc3nc21	-28%	?
CN(c1ccccc1)S(=O)(=O)c1cccc(C(=O)NCCc2ccc(O)c(O)c2)c1	-8%	-17%
COc1ccc(O)c(/C=N/Nc2nc3ccccc3[nH]2)c1	-5%	i
CCOc1cccc(CNc2nnnn2C)c1	1%	-11%
NC(=O)C1CCN(CC(=O)Nc2ccccc2Sc2ccc(Cl)cc2)CC1	-3%	-14%
CC(=O)c1ccc(OC2(C)CCN(Cc3ccc(C)cc3)C2)cc1 (configuration not stated)	-10%	i
Cc1cc2nc3c(nc2cc1C)C1(C(=O)O)CCC3(C)C1(C)C (configuration not stated)	-25%	.
SMILES	VACV Venus inh	VACV mCherry inh
O=C(/C=C/c1ccccc1)NNC(=O)c1ccco1	-5%	-7%
CC(=O)Nc1ccccc1C(=O)C(=O)Nc1cccc(C(=O)NCc2ccccc2)c1	-19%	-21%
Cc1cc(S(=O)(=O)N2CCCOC2CNC(=O)C(=O)NCCCN2CCOCC2)ccc1F (configuration not stated)	-10%	-8%
O=S(=O)(c1cccc2cnccc12)N1CCNCC1	?	?
CCCOc1ccc(C(=O)NCCc2ccccc2)cc1	-21%	i
O=C(NNC(=S)Nc1ccccc1)Nc1ccccc1	-13%	?
O=C(CN(C(=O)CCC(=O)Nc1ccccn1)C1CCCC1)NCc1ccc(F)cc1	-9%	-5%
CCc1c(C)c(C#N)c2nc3ccccc3n2c1N(C)C	-25%	.
CCC(C(=O)NCc1ccco1)N(C(=O)CNS(=O)(=O)c1ccc(C)cc1)c1ccccc1OC (configuration not stated)	-13%	i
Cc1ccccc1OCC(O)Cn1nnc2ccccc21 (configuration not stated)	-19%	-21%
COc1cc2c(cc1OC)CN(CC(=O)NC(=O)NCc1ccccc1)CC2	-19%	-5%
CCOC(=O)c1c(NC(=O)CN2C(=O)NC3(CCCCC3C)C2=O)sc(C)c1C (configuration not stated)	-12%	-23%
O=C(NCc1ccccc1Cl)C1(S(=O)(=O)c2ccc(Cl)cc2)CC1	0%	?
COc1cccc(C2=CC(c3cccc(OC)c3OC)n3nnnc3N2)c1 (configuration not stated)	?	-7%[1.46 µM]
COc1ccc(C(=O)N/N=C/c2ccccn2)cc1OC	-8%	-5%
CCOC(=O)N1CCN(CCC(=O)c2ccc(Br)cc2)CC1	-9%	-8%
O=C(C1CCCCCC1)N1CC[C@@H](N2CCC(O)CC2)[C@H](O)C1	-7%	i
COc1ccc(CCNC(=O)c2cnn3c2NC(=C2CC2)C=C3C(F)F)cc1OC	-27%	-7%
CCOc1ccccc1/C=C/C(=O)N1CCN(C(=O)c2ccco2)CC1	-7%	-16%
CCCOc1nc(SCCC)nc2c1cnn2-c1ccccc1	-3%	-17%
NC(N)=N/N=C/c1cccc(Cl)c1Cl	-25%	-23%
Cc1cccc(C)c1OCc1nnc(SCC(=O)Nc2ccccc2F)o1	2%	-4%
CCCCn1c(N)c(N(CC(C)C)C(=O)CCNC(=O)c2ccc([N+](=O)[O-])cc2)c(=O)[nH]c1=O	-3%	-6%
CC(=O)N1CCc2cc(S(=O)(=O)NCCC(=O)Nc3cc(C)cc(C)c3)ccc21	-10%	-26%
COc1ccc(C)cc1S(=O)(=O)N(C)CC(=O)NCc1ccncc1	-16%	-8%

Single values from the list.
In VACV mCherry inh, `COc1cc2c(cc1OC)CN(CC(=O)NC(=O)NCc1ccccc1)CC2` has -5%
In VACV Venus inh, `COc1ccc(CCNC(=O)c2cnn3c2NC(=C2CC2)C=C3C(F)F)cc1OC` has -27%
In VACV Venus inh, `Cc1cc(S(=O)(=O)N2CCCOC2CNC(=O)C(=O)NCCCN2CCOCC2)ccc1F` (configuration not stated) has -10%

Continued.
SMILES	VACV Venus inh	VACV mCherry inh
CC(C)c1nnc(NC(=O)C2CCCN2C(=O)Nc2ccc(F)cc2)s1 (configuration not stated)	-15%	-13%
O=C(CSc1nccn1Cc1ccc(F)cc1)Nc1ccc2c(c1)OCO2	-3%	-8%
CCOC(=O)NC(=O)/C(N=Nc1ccc(C(F)(F)F)cc1)=C(\C)O	-17%	i
C[C@@H]1COC(=O)[C@H](CC(=O)OC(C)(C)C)C/C=C\C[C@@H](CC(=O)N[C@H](CO)Cc2ccccc2)C(=O)N1	-6%	i
CCS(=O)(=O)c1ccccc1C(=O)NC1CCCc2ccccc21 (configuration not stated)	0%	-7%
COc1ccc(Cc2nc(-c3ccncc3)no2)cc1	-20%	-5%

Whole records from above. Order of values: VACV Venus inh, VACV mCherry inh
Record of `COc1ccc(S(=O)(=O)N(C)C[C@H]2Oc3ccc(NC(=O)Nc4ccccc4)cc3C(=O)N([C@H](C)CO)C[C@@H]2C)cc1` : ?, -10%
Record of `CN(c1ccccc1)S(=O)(=O)c1cccc(C(=O)NCCc2ccc(O)c(O)c2)c1` : -8%, -17%

Compound activity (PubChem BioAssay)
